HNF4A DNA FP – change in binding of human HNF4 alpha to DNA. activity change, % at 10 µM. HNF4a-FITC DNA binding, fluorescence polarization, 1 h. P41235. hit rate 0.3% among 360,000; in the data active = activity change above about 30%, passing the limit was not always enough;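 note: controls were the assay level and a saturating level of protein; the project sought stronger binding though the title names inhibitors; some compounds called inactive have numbers as strong as hits; positive values seem to mean higher polarization but the record does not say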
Target sequence (P41235 whole entry, looked up): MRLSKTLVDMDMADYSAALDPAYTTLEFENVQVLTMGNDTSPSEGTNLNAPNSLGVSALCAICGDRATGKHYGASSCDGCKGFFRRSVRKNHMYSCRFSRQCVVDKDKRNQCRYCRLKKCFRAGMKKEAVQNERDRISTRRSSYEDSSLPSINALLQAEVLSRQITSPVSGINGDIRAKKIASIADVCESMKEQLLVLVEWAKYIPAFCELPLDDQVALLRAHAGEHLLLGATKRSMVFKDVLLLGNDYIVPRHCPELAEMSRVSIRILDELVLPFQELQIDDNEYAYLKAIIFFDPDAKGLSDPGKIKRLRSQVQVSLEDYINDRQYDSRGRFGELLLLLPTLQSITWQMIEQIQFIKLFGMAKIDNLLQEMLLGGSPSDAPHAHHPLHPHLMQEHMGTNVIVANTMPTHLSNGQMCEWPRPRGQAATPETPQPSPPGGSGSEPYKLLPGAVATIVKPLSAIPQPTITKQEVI
FGF22 binding – FGF22 (human) thermal shift binding | recombinant FGF22 thermal shift, SYPRO orange fluorescence; percent of sucrose octasulfate shift, DMSO zero | AID 651658 | Q9HCT0 | calls only at 9.99 µM | hit rate 1.5% among 340,000;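 active = melting point raised past a set limit in the mean and every replicate; three in four hits are not shown here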
E coli growth – inhibitors of Escherichia coli growth; OD600, 23 h; stronger effect = lower value; OD600 absorbance (concentration not given with the values); hit rate 0.21% among 330,000; AID 1053175;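 active = OD600 absorbance below the run mean of sample wells minus 3.6 SD, in any replicate, cut at about 0.56 in these data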;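 note: stock transfer was 300 nL into about 60 µL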
UCH37 inh – blocks the human deubiquitinase UCH37; purified proteasome/UCH37, Ub-AMC cleavage fluorescence; inhibition, % (concentration not given with the values); hit rate 0.33% among 330,000;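 active = mean of two replicates above 20%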;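 note: 0% = compound-free wells with enzyme and 100% = wells lacking proteasome; stock transfer was 100 nL into about 20 µL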
Target sequence (Q9Y5K5 whole entry, looked up): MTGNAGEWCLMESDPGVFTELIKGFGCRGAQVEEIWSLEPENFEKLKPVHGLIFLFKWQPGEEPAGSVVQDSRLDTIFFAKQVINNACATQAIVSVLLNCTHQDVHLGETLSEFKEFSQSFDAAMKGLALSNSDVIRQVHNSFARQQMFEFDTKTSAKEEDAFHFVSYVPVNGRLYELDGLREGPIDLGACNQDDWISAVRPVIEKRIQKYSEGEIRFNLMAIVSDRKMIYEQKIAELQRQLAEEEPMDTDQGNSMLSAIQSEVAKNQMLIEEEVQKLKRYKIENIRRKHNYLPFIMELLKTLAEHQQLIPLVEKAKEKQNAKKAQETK
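Reagent: Ub-AMC substrate; assay system: Proteasome-associated human UCH37 deubiquitinase; controls: no-proteasome and no-compound wells; read-out: % inhibition of Ub-AMC cleavage fluorescence; timing: 30 min preincubation with enzyme, 25 min cleavage at room temperature; signal: AMC fluorescence from Ub-AMC cleavage, excitation 355 nm, emission 460 nm; buffer or medium: Tris-HCl pH 7.4 plus ovalbumin, ATP-MgCl2, DTT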
Ecoli rRNA inh – selective bacterial rRNA inhibition in E. coli | E. coli WT GFP vs humanized-ribosome RFP mutants, fluorescence, 24 h; stronger effect = lower value; DMSO median 0, no signal -100 | GFP signal change (wild-type ribosome), % (no concentration beside the values) | hit rate 1.6% among 350,000 | AID 720706;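 active = significant combined selectivity score with lowered wild-type GFP, culture density cut under 30%, mutant RFP and density less affected; inactive = any of these conditions unmet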; note: one replicate is shown; some compounds called inactive have numbers as strong as hits
ALR H2O2 inh – human ALR oxidase inhibition via reduced H2O2; hit rate 3.8% among 290,000; P55789; inhibition, % (no concentration beside the values); purified ALR, DTT oxidation, H2O2 HRP-luminol luminescence; AID 485317;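 active = mean and each replicate at 75% or more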;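 note: stock transfer was 7.5 nL into about 7.5 µL; 0% = neutral wells and 100% = wells with inactivated enzyme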
Target sequence (P55789 whole entry, looked up): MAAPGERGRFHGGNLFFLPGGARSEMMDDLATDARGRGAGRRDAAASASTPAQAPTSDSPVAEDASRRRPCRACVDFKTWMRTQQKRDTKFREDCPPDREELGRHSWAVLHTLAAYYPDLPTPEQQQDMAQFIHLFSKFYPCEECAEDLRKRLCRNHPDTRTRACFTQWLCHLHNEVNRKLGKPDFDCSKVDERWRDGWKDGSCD
Beta2AR agonist – activates human beta-2 adrenergic receptor causing internalization. P07550. Am2.2-beta2AR cells, FAP receptor internalization, flow cytometry; reference of the scale not given here. response, % (test concentration not listed). hit rate 0.43% among 340,000;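 active = response above a set limit, near 3 SD of response in nonfluorescent compounds, cut at about 42% in these data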;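 note: stock transfer was 100 nL into about 11 µL; a reference agonist was the positive control; negative values mostly stem from fluorescent compounds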
Ecoli rRNA inh OD600 – further read-out of Ecoli rRNA inh, marked with its call; OD600 change, %; measured here: OD600 growth;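 optical density of the mix in the first replicate; 0 = DMSO median and -100 = no signal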
Ecoli rRNA inh RFP – further read-out of Ecoli rRNA inh, marked with its call; RFP signal change, %; measured here: RFP humanized mutant strains;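 first replicate; 0 = DMSO median and -100 = no signal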
* = called active by the depositor; i = inactive; nt = no result given. Not all compounds are listed; count on the stated rates, not on these rows.

| mol | HNF4A DNA FP | FGF22 binding | E coli growth | UCH37 inh | Ecoli rRNA inh | Ecoli rRNA inh OD600 | Ecoli rRNA inh RFP | ALR H2O2 inh | Beta2AR agonist |
| --- | --- | --- | --- | --- | --- | --- | --- | --- | --- |
| Cc1ccc(S(=O)(=O)/C=C2\OCc3ccccc32)cc1 | -0.9 | i | nt | nt | 21 | 17 | 2.1 | nt | nt |
| Nn1c(SCC(=O)Nc2ccc(F)c(F)c2)nnc1C1CCCCC1 | -0.6 | nt | 0.68 | 4.5 | nt | nt | nt | -4 | -8 |
| COc1ccc(-n2c(SCC(=O)NCCC(C)C)nc3ccsc3c2=O)cc1 | 0.8 | nt | 0.75 | 1.7 | nt | nt | nt | -28 | -20 |
| CC(=O)Nc1ccc(OCCOc2ccc([N+](=O)[O-])cc2)cc1 | -3.8 | i | 0.66 | 5.6 | -7 | 5 | -0.2 | nt | 0 |
| Cc1cc(SCC(=O)NC2(C#N)CCCCC2)nc2c(C)cccc12 | 0.5 | i | 0.69 | 1.6 | -40 | -52 | -8.4 | -3 | 0 |
| S=c1nc(C2CC2)n(-c2ccccc2)[nH]1 | 2.9 | i | 0.71 | 3.5 | 12 | 4 | 16 | 41 | 2 |
| Cc1ccc2c(c1)nnn2C1CCN(CC(=O)NNC(=O)c2ccco2)CC1 | 2.9 | nt | 0.66 | 1.8 | 9 | 10 | -2.4 | -10 | 1 |
| O=C(NC1CCCCCC1)c1cc(=O)[nH]c2ccc(S(=O)(=O)N3CCOCC3)cc12 | -1.1 | i | 0.73 | 2.8 | 9 | 14 | -2.9 | 2 | -4 |
| O=C(Nc1cccc(C(=O)N2CCOCC2)c1)c1cncc(Br)c1 | -8.8 | nt | 0.72 | 0.4 | nt | nt | nt | -5 | -8 |
| CCCCc1cc(=O)oc2cc(C)cc(OC(C)C(=O)NCC3CCC(C(=O)O)CC3)c12 (stereo unspecified) | 4.8 | i | 0.66 | -118 | nt | nt | nt | nt | 12 |

Some of the entries so far, with the structure last.
HNF4A DNA FP	FGF22 binding	E coli growth	UCH37 inh	Ecoli rRNA inh	Ecoli rRNA inh OD600	Ecoli rRNA inh RFP	ALR H2O2 inh	Beta2AR agonist	Molecule
-0.9	i	nt	nt	21	17	2.1	nt	nt	Cc1ccc(S(=O)(=O)/C=C2\OCc3ccccc32)cc1
-0.6	nt	0.68	4.5	nt	nt	nt	-4	-8	Nn1c(SCC(=O)Nc2ccc(F)c(F)c2)nnc1C1CCCCC1
0.8	nt	0.75	1.7	nt	nt	nt	-28	-20	COc1ccc(-n2c(SCC(=O)NCCC(C)C)nc3ccsc3c2=O)cc1
-3.8	i	0.66	5.6	-7	5	-0.2	nt	0	CC(=O)Nc1ccc(OCCOc2ccc([N+](=O)[O-])cc2)cc1
0.5	i	0.69	1.6	-40	-52	-8.4	-3	0	Cc1cc(SCC(=O)NC2(C#N)CCCCC2)nc2c(C)cccc12
2.9	i	0.71	3.5	12	4	16	41	2	S=c1nc(C2CC2)n(-c2ccccc2)[nH]1
2.9	nt	0.66	1.8	9	10	-2.4	-10	1	Cc1ccc2c(c1)nnn2C1CCN(CC(=O)NNC(=O)c2ccco2)CC1

Following part:
| mol | HNF4A DNA FP | FGF22 binding | E coli growth | UCH37 inh | Ecoli rRNA inh | Ecoli rRNA inh OD600 | Ecoli rRNA inh RFP | ALR H2O2 inh | Beta2AR agonist |
| --- | --- | --- | --- | --- | --- | --- | --- | --- | --- |
| Cc1cccc(NC(=O)c2ccc(F)c(S(=O)(=O)NCc3ccco3)c2)c1 | 4.3 | i | 0.68 | 4.2 | 3 | -6 | -1.1 | -7 | 6 |
| CN(C)C(=O)c1cc([N+](=O)[O-])cc([N+](=O)[O-])c1N(C)C | 2.5 | nt | 0.68 | 13 | nt | nt | nt | nt | 5 |
| Cc1ccc2c(c1)c(/C=C/c1cc[n+](C)cc1)c(C)n2C | 180 | i | nt | nt | 68 | -58 | 28 | 85* | nt |
| CC(NCCOc1ccccc1F)C(=O)Nc1ccc(S(N)(=O)=O)cc1 (stereo unspecified) | 4.6 | i | 0.65 | 2.4 | 5 | 7 | -0.7 | -3 | 0 |
| CC(NC(=O)C(=O)N1CCCCC1)C(c1cccs1)N1CCN(c2ccccc2F)CC1 (stereo unspecified) | -1.8 | i | 0.61 | 0.3 | -2 | -14 | 0.0 | -1 | 4 |
| Cc1ccsc1-c1nc(CN2C[C@@H](C)O[C@@H](C)C2)c(C)o1 | 1.6 | i | 0.69 | 9.0 | -4 | -22 | -0.7 | -13 | 10 |
| CC1CCCC(C)N1/N=C/c1ccccc1Br (stereo unspecified) | 1.6 | i | nt | nt | 11 | 12 | 0.0 | -7 | -7 |
| COc1ccc(S(=O)(=O)N(C)C[C@H]2Oc3ccc(NC(=O)c4ccncc4)cc3C(=O)N([C@H](C)CO)C[C@@H]2C)cc1 | 1.4 | i | 0.71 | 3.7 | -4 | 8 | 3.2 | nt | -2 |
| Cc1ccc(CN2CCSc3ccc(C(=O)NCCCN4CCOCC4)cc32)cc1 | -0.9 | i | 0.65 | i | -11 | -13 | 5.3 | 98* | -2 |
| CCOC(=O)C1(Cc2ccccc2C)CCCN(C(=O)c2ccc(C(C)=O)s2)C1 (stereo unspecified) | -0.1 | i | nt | nt | -1 | -13 | 0.8 | nt | nt |
| Cc1cc(-c2cccs2)c2c(n1)sc1c(=O)[nH]c(=O)[nH]c12 | 6.6 | nt | 0.67 | -25 | nt | nt | nt | -11 | 5 |
| CCOC(=O)/C(C#N)=C1/SC(CCO)C(=O)N1c1ccccc1 (stereo unspecified) | -2.1 | nt | 0.67 | 4.6 | nt | nt | nt | 5 | -2 |
| Cc1ccc(N(C)S(=O)(=O)c2cccc(C(=O)N(C)Cc3cnn(-c4ccccc4)c3)c2)cc1 | -0.1 | i | 0.72 | 3.4 | -19 | -42 | -3.8 | nt | -10 |
| O=C(COC(=O)CCC1CCCC1)Nc1ccccc1Sc1ccccc1 | -1.3 | i | 0.71 | 3.5 | 4 | -1 | -7.0 | -21 | -2 |
| CCOc1ccc(C(C)NC(=O)C2CCCC2)cc1 (stereo unspecified) | -5.5 | i | 0.72 | 2.2 | 6 | 5 | 1.4 | nt | -12 |
| COc1ccc2c(c1)C1C=CCC1C(c1cc3c(cc1Br)OCO3)N2 (stereo unspecified) | -8.5 | nt | 0.72 | 2.2 | nt | nt | nt | -18 | 4 |
| Cn1c(CSCC(=O)Nc2ccccc2)nnc1SCc1ccccc1 | 3.0 | i | 0.63 | 1.3 | 6 | -3 | 0.3 | -36 | 5 |
| COc1cc(C(=O)NC(=S)N2CCCCCC2)cc(OC)c1OC | 1.7 | i | 0.73 | 2.5 | 26 | 9 | 2.2 | 13 | -2 |
| COC(=O)[C@H]1C[C@H](C(=O)O)[C@@H](C)C1(C)C | 2.0 | i | nt | 0.5 | 15 | 6 | 13 | 5 | -8 |
| Nc1ccc(Nc2nc(-c3cccs3)cs2)cc1 | 2.1 | i | 0.7 | 1.4 | 6 | 17 | 6.9 | nt | -7 |
| COCCCNC(=S)NNC(=O)c1cc(Cl)c(O)c(Cl)c1 | 0.3 | i | 0.62 | 2.1 | 2 | 11 | 4.2 | 16 | 6 |
| Cc1ccccc1N1C(=O)C2ON(c3ccccc3)C(c3ccncc3)C2C1=O (stereo unspecified) | 2.1 | nt | 0.68 | 4.5 | nt | nt | nt | -3 | -1 |
| O=c1cn[nH]c2ccccc12 | 1.7 | i | 0.65 | 4.4 | 4 | 3 | 3.0 | -4 | -2 |
| CSc1nc(N(C)CCO)c2sc3nc(-c4ccco4)c4c(c3c2n1)CCC4 | -17 | nt | 0.71 | -10 | nt | nt | nt | 98* | -4 |
| COC(=O)[C@@H](Cc1ccccc1)NC(=O)[C@H]1O[C@@H](n2cnc3c(N)ncnc32)[C@H](O)[C@@H]1O | 1.4 | i | nt | nt | 6 | 11 | -0.3 | nt | nt |
| NC1=NC(c2ccc(Cl)cc2)N(c2ccc(S(N)(=O)=O)cc2)C(N)=N1 (stereo unspecified) | 6.4 | i | 0.68 | 0.1 | 14 | 14 | 0.8 | -9 | -5 |
| Cc1cc(OCC(F)(F)C(F)(F)C(F)(F)C(F)(F)C(F)(F)C(F)F)nc(N)n1 | 3.7 | nt | 0.7 | 1.8 | nt | nt | nt | nt | 0 |
| Cn1c(SCC(=O)NC2CCS(=O)(=O)C2)nc2ccccc21 (stereo unspecified) | 0.9 | i | 0.62 | 1.1 | 8 | 10 | 2.0 | -5 | 4 |
| Cc1ccc(S(=O)(=O)NC(=O)N(CCC#N)Cc2ccccc2)cc1 | 2.1 | i | 0.67 | 1.3 | 13 | 10 | -1.3 | -10 | 14 |
| Cc1ccc(-c2csc3ncnc(NS(=O)(=O)c4ccc(Cl)cc4)c23)cc1 | -2.0 | i | 0.72 | 2.2 | -1 | -6 | 3.7 | -7 | 7 |
| CC(C)(COC(=O)C(c1ccccc1)c1ccccc1)CN1CCOCC1 | 1.6 | i | 0.65 | 0.4 | -4 | -40 | -7.2 | nt | 0 |
| COc1ccc(N2CCN(S(=O)(=O)c3ccc4c(c3)NC(=O)C(C)C(=O)N4)CC2)cc1 (stereo unspecified) | 0.6 | i | 0.79 | 4.8 | 8 | 8 | 5.8 | 26 | 13 |
| COc1ccc(NC(=O)CN(C)Cc2cccs2)cc1Cl | 1.1 | i | 0.6 | 0.2 | -10 | -8 | 1.8 | -14 | 15 |
| COc1ccc(NC(=O)CN2C(=O)NC(C)(C3CCCCC3)C2=O)c(OC)c1 (stereo unspecified) | 2.1 | i | 0.73 | 0.6 | -1 | 2 | 6.2 | 4 | 10 |
| CC(=O)N(C(C)=O)N1C(=O)/C(=C/c2ccc(Cl)cc2)SC1=S | 1.1 | nt | 0.7 | 6.4 | nt | nt | nt | 17 | 31 |
| O=C1CCCCC1Sc1ccc(Cl)cc1[N+](=O)[O-] (stereo unspecified) | 2.9 | i | 0.67 | 4.7 | 0 | -4 | 3.2 | -28 | 3 |
| CCCC(C(=O)NC1CCCC1)N(CCN(CC)CC)C(=O)c1snc(C(N)=O)c1N (stereo unspecified) | -0.4 | i | 0.67 | -30 | -1 | 3 | -1.9 | -3 | 5 |
| CCOC(=O)CNC(=S)N(CCCN1CCCCC1)Cc1cccs1 | 0.6 | i | 0.66 | 2.6 | 12 | 11 | -0.5 | -4 | 2 |
| CC1(c2nnc(-c3cccc(Cl)c3)o2)CC(c2cccc([N+](=O)[O-])c2)=NO1 (stereo unspecified) | -3.3 | i | 0.68 | 0.2 | 3 | -6 | -11 | 0 | -3 |
| CCCC1=Nc2cc(C(=O)NCCCN3CCOCC3)ccc2Sc2ccccc21 | 1.3 | i | 0.68 | 3.1 | -24 | -31 | -3.8 | -37 | 18 |
| Cc1cc(N/N=C2/CCCc3ccccc32)nc2ccccc12 | -0.1 | i | nt | nt | -45 | -72 | -8.7 | -13 | 12 |
| COc1cc(NC(=O)c2ccccc2)c(OC)cc1NC(=O)CN1C(=O)NC2(CCCCC2C)C1=O (stereo unspecified) | 2.6 | i | 0.63 | 4.3 | 0 | 7 | -2.0 | -10 | 1 |

Screening data (PubChem BioAssay)
